Calb FLC: C. albicans growth inhibition with fluconazole, primary screen, CaCi-2 strain, Alamar Blue fluorescence | 300,000 tested, 0.57% active | AID 1979, 2009 | growth inhibition, % (test concentration not listed) | C. albicans CaCi-2 (fluconazole-resistant clinical isolate) + fluconazole, 48 h;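 active = most replicates above 75%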;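 note: all wells also contain fluconazole at 8 µg/ml as a sub-toxic cotreatment; 0% = median of DMSO wells and 100% = median of geldanamycin control wells; wells of about 8 µL received 7.5 nL stock; the first replicate is given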
T cruzi inh: inhibitors of intracellular T. cruzi growth, primary screen, luminescence, NIH3T3 host cells; T. cruzi beta-gal in NIH3T3, 90 h; inhibition, % (test concentration not listed); 300,000 tested, 1.4% active; AID 1885, 2009;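 active = mean inhibition across valid replicates above about 55%, limit read from the data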;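 note: signal also drops with host cell toxicity which is not excluded here; 0% = plate median of DMSO wells and 100% = zero luminescence signal; higher percent means less beta-gal luminescence so fewer parasites; stock transfer was 50 nL into about 50 µL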
B2AR ag: beta2AR agonists driving receptor internalization, primary screen, cell-based, FAP fluorogen, flow cytometry | Am2.2-beta2AR cells; reference of the scale not given here | response, % (test concentration not listed) | 340,000 tested, 0.43% active;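 active = response above a set limit, near 3 SD of response in nonfluorescent compounds, cut at about 42% in these data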;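 note: stock transfer was 100 nL into about 11 µL; a reference agonist was the positive control; negative values mostly stem from fluorescent compounds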
Target sequence (P07550 whole entry, looked up): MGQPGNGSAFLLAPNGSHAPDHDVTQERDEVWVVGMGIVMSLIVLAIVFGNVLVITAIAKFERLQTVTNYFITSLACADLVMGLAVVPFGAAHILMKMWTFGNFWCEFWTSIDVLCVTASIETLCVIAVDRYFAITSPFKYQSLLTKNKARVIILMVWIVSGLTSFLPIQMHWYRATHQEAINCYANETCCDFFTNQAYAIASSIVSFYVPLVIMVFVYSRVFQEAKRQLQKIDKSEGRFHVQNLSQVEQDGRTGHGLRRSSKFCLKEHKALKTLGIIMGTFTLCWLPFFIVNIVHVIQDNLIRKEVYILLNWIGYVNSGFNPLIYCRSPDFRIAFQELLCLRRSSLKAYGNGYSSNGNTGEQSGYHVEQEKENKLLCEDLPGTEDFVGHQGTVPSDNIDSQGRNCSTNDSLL
Ecoli rRNA inh: reduced GFP signal of wild-type E. coli, primary screen, bacterial rRNA inhibitor project, GFP/RFP fluorescence, OD600, single point. 350,000 tested, 1.6% active. AID 720706, 2013. E. coli WT GFP vs humanized-ribosome RFP mutants, 24 h; active compounds read low; DMSO median 0, no signal -100. GFP signal change (wild-type ribosome), % (no concentration beside the values);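 active = significant combined selectivity score with lowered wild-type GFP, culture density cut under 30%, mutant RFP and density less affected; inactive = any of these conditions unmet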; note: one replicate is shown; some compounds called inactive have numbers as strong as hits
ALR inh: inhibitors of human ALR sulfhydryl oxidase, primary screen, biochemical, H2O2 detection, HRP-luminol luminescence, single point; FAD-linked sulfhydryl oxidase ALR (Homo sapiens), P55789; purified ALR, DTT oxidation; inhibition, % (no concentration beside the values); 290,000 tested, 3.8% active;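 active = mean and each replicate at 75% or more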;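 note: stock transfer was 7.5 nL into about 7.5 µL; 0% = neutral wells and 100% = wells with inactivated enzyme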
Target sequence (P55789 whole entry, looked up): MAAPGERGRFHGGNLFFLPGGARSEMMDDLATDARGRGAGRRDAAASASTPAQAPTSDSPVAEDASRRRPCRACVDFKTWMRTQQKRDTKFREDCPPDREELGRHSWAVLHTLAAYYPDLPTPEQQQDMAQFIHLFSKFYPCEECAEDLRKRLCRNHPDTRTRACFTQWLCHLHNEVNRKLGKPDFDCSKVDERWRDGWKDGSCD
A1 inh: caspase 3/7 activation in MEF A1-2A-BIM cells, primary screen, A1 inhibitor project, cell-based, luminescence, HTS; AID 2462, 2010; 330,000 tested, 0.066% active; caspase activation, % (no concentration beside the values); Caspase-Glo 3/7 luminescence, 3 h; percent of clofoctol response, vehicle zero;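 active = over half of replicate activation scores above 10%, or exactly half above 10 with the replicate mean above 10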;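 note: wells of about 30 µL received 50 nL stock; many hits fall short of the cut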
LANA-H2A inh: blockers of LANA interaction with H2A/H2B – biochemical, FP readout, HTS, primary screen; Protein LANA1 (Human herpesvirus 8 type P (isolate GK18)), Q9QR71; cell-free LANA-H2A/H2B peptide, fluorescence polarization; inhibition, % (no concentration beside the values); 320,000 tested, 0.6% active; AID 2629, 2010; in the data active = inhibition mostly above about 10%, no sharp cut-off; inactive = mostly below about 6.7%;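 note: stock transfer was 7.5 nL into about 10 µL; 0% = median of vehicle wells and 100% = median of positive control wells; one replicate is shown; the record names a cut of 25% in any replicate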
Beta cell apopt: inhibitors of cytokine-induced beta cell apoptosis, primary screen, luminescence. AID 435005, 2010. 300,000 tested, 0.8% active. protection from apoptosis, % (no concentration beside the values). INS-1E cytokine-induced death, ATP luminescence, 48 h; percent of positive-control rescue, neutral wells zero;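 active = all replicates at 75% or more, or half of them and the mean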;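 note: 0% = cytokine-treated negative control wells and 100% = positive control rescue; higher means more ATP so stronger rescue from cytokine killing; wells of about 40 µL received 100 nL stock; the first replicate is given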
Ecoli rRNA inh OD600: second read-out of Ecoli rRNA inh, no call of its own (marks repeat the call); OD600 change, %; measured here: OD600 growth;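 optical density of the mix in the first replicate; 0 = DMSO median and -100 = no signal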
Ecoli rRNA inh RFP: further read-out of Ecoli rRNA inh, marked with its call; RFP signal change, %; measured here: RFP humanized mutant strains;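 first replicate; 0 = DMSO median and -100 = no signal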
The depositor's hits bear a star; · = no result given. This is a subset, so the mix of outcomes need not match the whole.

Values run as follows: B2AR ag, A1 inh, LANA-H2A inh, Beta cell apopt, ALR inh, Calb FLC, T cruzi inh, Ecoli rRNA inh, Ecoli rRNA inh OD600, Ecoli rRNA inh RFP
> Cc1nn(C)c(C)c1CN(C)C(=O)C1CCC(=O)N(C2CCCCCC2)C1 (stereo not drawn)
    1, 0.5, 3.0, 3, -5, -4, -1, 10, 19, -0.2
> CCOC(=O)c1c(C)[nH]c(C(=O)CSc2nnc(-c3ccncc3)n2CC)c1C
    -3, 0.7, -0.7, -3, 11, 11, 1, ·, ·, ·
> CCN(CC(=O)Nc1ccc(NC(C)=O)cc1)C(=O)CSc1ncnc2sc(C)c(C)c12
    9, 0.0, 5.0, 1, 44, 3, -3, 2, 7, 1.6
> CCn1c(=O)c(=O)[nH]c2cc(C(=O)NC(C)c3ccc(S(N)(=O)=O)cc3)ccc21 (stereo not drawn)
    2, -0.7, -3.7, -5, 97*, -12, -1, 6, 2, 21
> COC(=O)C1=C(NC(C)=O)CCS1
    -6, -0.1, 3.6, -1, -2, -2, -1, ·, ·, ·
> Cc1nn(-c2ccc(N3CCCCC3)nn2)c(C)c1CCC(=O)Nc1ccccc1F
    -6, -2.0, -1.8, 3, 2, 0, 0, -19, -4, 4.4
> CN(C(=O)CCc1nnc(CCCCc2ccccc2)o1)C1CCOCC1
    -3, 0.4, 3.4, -6, -10, 1, -19, 7, -6, 2.5
> O=C1C([N+](=O)[O-])=C(O)c2cccc3cccc1c23
    ·, -0.2, 4.8, -20, 2, -7, 0, ·, ·, ·
> CCOc1ccc(-c2nc(-c3ccc(OC)cc3)no2)cc1OCC
    -1, 0.1, 0.2, -1, -8, 37, 10, ·, ·, ·
> Cc1ccc(C(=O)CN(C(=O)c2ccc(Cl)c(Cl)c2)N2C(=O)C3CCCCC3C2=O)cc1C (stereo not drawn)
    -1, -0.2, 3.9, -3, -14, 0, -17, ·, ·, ·
> CC(C)(C)c1ccc(C(=O)Nc2ccc(NC(=O)C(=O)O)cc2)o1
    17, 0.4, -3.3, -11, 55, -2, 6, 5, 7, 9.4
> CN(C)C(=O)CCc1nc(-c2ccc(C(C)(C)C)cc2)no1
    0, -0.1, 5.0, -2, -3, -6, -8, ·, ·, ·
> COc1ccccc1OCC(=O)NC1CC(C)(C)NC(C)(C)C1
    2, -0.7, 3.0, ·, -10, -2, 3, 1, 9, -1.9
> CCO[C@@H]1OC(C(=O)Nc2ccccc2)=C[C@H](c2ccc(C(F)(F)F)cc2)[C@H]1CCCO
    -2, 0.7, 2.2, 0, 0, 64, 25, 6, 11, 3.2
> Cc1ccc(NC(=O)CN2C(=O)NC(C)(c3ccc(Cl)cc3)C2=O)c(Br)c1 (stereo not drawn)
    -5, 0.4, 0.8, 7, ·, 20, 6, 2, -6, 2.5
> CCC(=O)N1c2ccc(S(=O)(=O)CCC(=O)NCc3cccs3)cc2CC1C (stereo not drawn)
    -13, -0.3, 2.2, ·, -11, -10, 8, ·, ·, ·
> CCCNC(=O)Nc1nnc(C2CC2)s1
    1, 1.2, -0.7, -2, -1, -3, -6, 9, 18, 2.8
> CC(=O)Nc1cccc(-c2nc3ccccc3s2)c1C
    3, 0.6, 55*, 0, -21, -4, 5, 0, 0, -1.7
> O=S(=O)(NCC1CCN(Cc2ccccc2)CC1)c1ccccc1C(F)(F)F
    -6, 0.4, 0.4, -3, ·, -13, 14, 6, -4, -0.6
> CC(C)(C)NC(=O)Cc1ccc(S(=O)(=O)N2CCCC2)s1
    10, 1.1, -1.2, -4, -9, -1, -10, ·, ·, ·
> CC1(c2ccccc2)NC(=O)N(CC(=O)Nc2ccc3c(c2)OCO3)C1=O (stereo not drawn)
    -5, 1.6, 2.3, 3, -4, -1, -4, ·, ·, ·
> O=C(NNc1nc(-c2ccccc2)c2cc(Br)ccc2n1)c1ccc(S(=O)(=O)N2CCCCC2)cc1
    -12, 0.7, -5.7, -7, 0, -4, 5, ·, ·, ·
> CC(CN1CCCCC1)OC(=O)c1cc2ccccc2o1 (stereo not drawn)
    -1, -0.8, 3.5, 4, -5, 4, 12, ·, ·, ·
> Cc1ccc(CNC(=O)C2CCN(S(=O)(=O)c3ccc4c(c3)CC(C)N4C(=O)C3CCC3)CC2)o1 (stereo not drawn)
    -16, -0.2, 0.1, 8, 5, -11, -7, -6, -6, 1.8
> CC(=O)N1CCN(c2ccc(NC(=O)c3ccccc3Br)cc2Cl)CC1
    2, 0.0, -1.0, ·, 1, -11, -11, ·, ·, ·
> CCc1ccccc1N(CC(=O)N/N=C/c1ccc(OC(=O)OC)c(OC)c1)S(C)(=O)=O
    9, 0.7, 3.1, -7, 37, -3, 1, ·, ·, ·
> CC(C)(C)OC(=O)C[C@H]1C/C=C\C[C@H](CC(=O)N(CCO)Cc2ccccc2)C(=O)N[C@H](C(C)(C)C)COC1=O
    -2, 0.2, 7.1, -5, -1, ·, ·, 13, 14, 5.4
> CC1(C)C2CCC(C2)C1(C)NC(=O)CN1CCN(Cc2ccccc2)CC1 (stereo not drawn)
    -6, 0.5, -4.0, -3, 0, -17, 47, -2, -8, 0.0
> CCN(CC)C(=O)CS(=O)(=O)CC(=O)Nc1cc(OCCOC)c(Cl)cc1Cl
    0, 0.4, 3.9, -10, -2, 50, -6, 14, 3, 2.2
> O=C(CN1C(=O)C2CC=CCC2C1=O)Nc1cc(C(F)(F)F)ccc1N1CCCC1 (stereo not drawn)
    -1, -0.2, 1.9, 0, 17, 0, -6, 3, 8, 1.4

Exported as a markdown table: 3 of the compounds above.
| structure | B2AR ag | A1 inh | LANA-H2A inh | Beta cell apopt | ALR inh | Calb FLC | T cruzi inh | Ecoli rRNA inh | Ecoli rRNA inh OD600 | Ecoli rRNA inh RFP |
| --- | --- | --- | --- | --- | --- | --- | --- | --- | --- | --- |
| O=S(=O)(NCC1CCN(Cc2ccccc2)CC1)c1ccccc1C(F)(F)F | -6 | 0.4 | 0.4 | -3 | · | -13 | 14 | 6 | -4 | -0.6 |
| CCC(=O)N1c2ccc(S(=O)(=O)CCC(=O)NCc3cccs3)cc2CC1C (stereo not drawn) | -13 | -0.3 | 2.2 | · | -11 | -10 | 8 | · | · | · |
| CN(C)C(=O)CCc1nc(-c2ccc(C(C)(C)C)cc2)no1 | 0 | -0.1 | 5.0 | -2 | -3 | -6 | -8 | · | · | · |

Continuation:
Values run as follows: B2AR ag, A1 inh, LANA-H2A inh, Beta cell apopt, ALR inh, Calb FLC, T cruzi inh, Ecoli rRNA inh, Ecoli rRNA inh OD600, Ecoli rRNA inh RFP
> COc1cc(C(C)=O)ccc1Oc1ncnc2c1cnn2-c1ccc(F)cc1
    -2, 0.3, -0.1, -3, -8, -7, -22, ·, ·, ·
> Cc1ccc(N2C(=O)N(CC(=O)Nc3ccc([N+](=O)[O-])cc3)C(=O)C2C)cc1 (stereo not drawn)
    21, -0.8, -5.1, -8, -3, -17, -7, -11, -1, 6.7
> O=C(c1ccccn1)N1CCN(S(=O)(=O)c2ccccc2)CC1
    4, -0.3, -4.3, -2, ·, 31, 10, 10, 9, -7.3
> Cc1ccn(-c2cc(O)c(-n3ccc(C)n3)cc2O)n1
    3, 0.0, -0.4, -2, -26, 4, -18, ·, ·, ·
> CCOc1ccc(CNC(=O)CCC(=O)n2nc(C)c3ccccc32)cc1
    -8, 0.9, 0.0, -5, 9, 15, -2, 6, 1, -1.5
> CC(C)(C)C(=O)Nc1ccccc1C(=O)NCc1ccco1
    -8, -0.5, 3.7, 0, -13, -2, 8, ·, ·, ·
> Nc1nc(-c2ccc(S(=O)(=O)N3CCCCC3)cc2)cs1
    3, -2.4, -3.9, 12, ·, ·, ·, 2, 4, 1.9
> Cc1c(-c2ccccc2)c(=O)oc2ccc(O)cc12
    -4, -0.3, 2.3, -2, 4, -1, -21, -9, -7, -2.2
> Cc1cccc(N2NC(=O)/C(=C/c3ccc(-c4ccc(Cl)c(C(=O)O)c4)o3)C2=O)c1
    -5, ·, ·, ·, ·, 103*, -14, 18, 8, 0.4
> Cc1nonc1NC(=O)CSc1nc(CCC2CCCC2)nc2ccccc12
    3, 0.1, 4.5, 6, 1, -9, -4, -7, 0, 6.1
> CC(C)CNC(=O)c1ccccc1NC(=O)c1ccc(CSc2ccccc2)cc1
    0, -0.1, 0.7, 5, -3, -2, 22, 20, 32, -6.6
> O=C(O)C1CCCN1S(=O)(=O)c1ccc(Br)s1 (stereo not drawn) (tested in a mixture with another compound)
    0, 0.7, -1.6, -10, ·, 6, 9, 10, 0, -7.7
> O=C(CNC(=O)c1ccc(F)cc1)c1ccc(Cl)cc1
    -2, -2.5, -1.3, 3, -4, -3, -8, 6, 10, -1.8
> O=C(Nc1ccccc1)Nc1cccc2cccnc12
    0, -5.3, -4.1, 8, ·, -21, 8, ·, ·, ·
> CCN1CCN(C(=O)c2cc3c(s2)-c2c(C)cccc2OC3)CC1
    -2, -1.5, -0.8, -5, 55, 21, 0, ·, ·, ·
> CCN(CC)C(=O)CCNS(=O)(=O)c1ccc(C)cc1
    3, 1.1, -0.3, 3, -14, -13, -6, ·, ·, ·
> CC1=NN(C(C)C)C(=O)C1
    -1, -0.4, -1.1, 3, ·, -5, -13, ·, ·, ·
> COc1cc(C(=O)N2CCN(c3ccccc3O)CC2)ccc1OCC(=O)N1CCOCC1
    -4, 2.3, -6.6, -7, 57, ·, ·, 2, 7, 2.9
> COc1ccc(C(=O)CSc2ccc(-c3ccccc3)nn2)cc1
    1, 0.3, 2.1, 1, 0, -2, 0, ·, ·, ·
> CC1CCCCN1CC(=O)Nc1ccccc1Sc1ccccc1 (stereo not drawn)
    33, 0.7, -1.1, 7, -18, 14, 28, ·, ·, ·
> CC1CCCC/C1=N\NC(=S)NCCc1ccccc1 (stereo not drawn)
    -5, -0.6, -3.0, -2, ·, 20, 14, -27, -23, -2.2
> O=C(CCn1cnnn1)Nc1cccc(F)c1
    -1, -0.1, 0.5, -12, -4, 2, -5, 8, 5, -4.9
> CCN(CC)S(=O)(=O)c1ccc2c(c1)N(CC(=O)N1CCC(C(N)=O)CC1)C(=O)CO2
    8, -0.2, 5.0, 7, -28, 32, -14, 6, 16, -1.4
> COc1ccccc1-c1coc2cc(OCC(=O)OCc3ccccc3)ccc2c1=O
    12, 1.7, 2.8, -2, -30, 0, -15, ·, ·, ·

Source: PubChem BioAssay (several laboratories)
